Compound activity: PubChem, several laboratories
Env fusion inh: HIV envelope-mediated fusion inhibition; HeLa-JRFL Env/CEM21 cell fusion, luciferase; inhibition, % at 12.3 µM; actives 1.1% (n = 360,000); AID 651610;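 active = mean replicate inhibition score of at least 50 and every replicate individually at or above 50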;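 also: 0% = plate neutral controls and 100% = maraviroc near 300 nM; one replicate is shown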
eIF4H FP inh: inhibitors of RNA binding by human eIF4H | actives 0.94% (n = 290,000) | inhibition, % at 35 µM | AID 2012 | Q15056 | eIF4H fluorescence polarization binding assay;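 active = 50% or more with normal probe brightness, or confirmed in later tests; about a fifth of its hits are not listed in these tables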;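 also: calls also rest on retests at 20 µM and on dose response follow-up; 0% = protein and probe with vehicle and 100% = probe without protein; strong numbers were not always called active; many hits fall short of the cut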
UUG fidelity: modulators of start codon recognition fidelity in yeast. activity score, % at 18.7 µM. S. cerevisiae UUG-firefly luciferase reporter, luminescence/redox ratio. actives 0.13% (n = 350,000);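 active = replicate mean at a twofold rise or more, about +100% in these data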;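 also: firefly luciferase made from a UUG start codon reports start codon fidelity; reporter light over untreated wells divided by growth signal over untreated wells; some hits fall short of that in this replicate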
Rce1 inh: yeast Ras-converting enzyme inhibition; AID 2563; yeast membranes, quenched prenylated peptide cleavage fluorescence; actives 0.27% (n = 290,000); Q03530; calls only;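 active = fall in fluorescence gain of 50% or more versus controls, with final raw signal at or below 3038400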;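 also: plate controls were neutral control wells for no effect and wells lacking membranes for full effect; tested at 10 µM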
Target sequence (Q03530 whole entry, looked up): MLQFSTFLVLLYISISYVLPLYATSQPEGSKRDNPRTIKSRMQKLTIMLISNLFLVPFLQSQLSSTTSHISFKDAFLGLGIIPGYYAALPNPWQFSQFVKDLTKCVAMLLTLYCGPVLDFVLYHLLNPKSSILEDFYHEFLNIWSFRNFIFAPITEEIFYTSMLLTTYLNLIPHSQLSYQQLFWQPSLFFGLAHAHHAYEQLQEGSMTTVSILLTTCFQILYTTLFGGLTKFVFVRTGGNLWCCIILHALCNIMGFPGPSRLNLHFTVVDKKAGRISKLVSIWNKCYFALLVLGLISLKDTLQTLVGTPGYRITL
CSC inhib: cancer stem cell inhibition. cancer stem cell-like cells viability, luminescence. inhibition, % at 7.5 µM. actives 1.1% (n = 300,000). AID 2717;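 active = mean at 75% or more and at least half the replicates too; tested in HMLE shEcad cells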;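 also: 0% = median of negative and 100% = median of positive control wells; the first replicate is given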
MT1-MMP act inh: inhibitors of human MT1-MMP activation; actives 0.061% (n = 360,000); P50281; GFP/RFP ratio change, % at 20 µM; HT1080 RFP-PRO-GFP cells, GFP/RFP ratio fluorescence, overnight; percent of plate control window, DMSO zero;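 active = GFP/RFP ratio change of at least 30% with cell ATP level not reduced by more than half and red fluorescence within 50% of control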; also: strong numbers were not always called active
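Assay system: HT1080 RFP-PRO-GFP cells | Dosing: 20 µM single dose, 1% DMSO | Incubation: Cells overnight before dosing, compound overnight, 37 °C, 5% CO2 | Evaluation: GFP/RFP fluorescence ratio | Control set: DMSO-only wells and HT1080 RFP-L50D-GFP cell wells as references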
PABP FP inh: blocks human PABP binding to poly(A) RNA | P11940 | fluorescence polarization | inhibition, % at 35 µM | actives 1% (n = 290,000);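 active = 50% or more with normal probe brightness, or confirmed in later tests; about a fifth of its hits are not listed in these tables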;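 also: calls also rest on retests at 20 µM and on dose response follow-up; controls were probe without protein and protein plus probe with vehicle; some compounds called inactive have numbers as strong as hits; many hits fall short of the cut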
Target sequence (P11940 whole entry, looked up): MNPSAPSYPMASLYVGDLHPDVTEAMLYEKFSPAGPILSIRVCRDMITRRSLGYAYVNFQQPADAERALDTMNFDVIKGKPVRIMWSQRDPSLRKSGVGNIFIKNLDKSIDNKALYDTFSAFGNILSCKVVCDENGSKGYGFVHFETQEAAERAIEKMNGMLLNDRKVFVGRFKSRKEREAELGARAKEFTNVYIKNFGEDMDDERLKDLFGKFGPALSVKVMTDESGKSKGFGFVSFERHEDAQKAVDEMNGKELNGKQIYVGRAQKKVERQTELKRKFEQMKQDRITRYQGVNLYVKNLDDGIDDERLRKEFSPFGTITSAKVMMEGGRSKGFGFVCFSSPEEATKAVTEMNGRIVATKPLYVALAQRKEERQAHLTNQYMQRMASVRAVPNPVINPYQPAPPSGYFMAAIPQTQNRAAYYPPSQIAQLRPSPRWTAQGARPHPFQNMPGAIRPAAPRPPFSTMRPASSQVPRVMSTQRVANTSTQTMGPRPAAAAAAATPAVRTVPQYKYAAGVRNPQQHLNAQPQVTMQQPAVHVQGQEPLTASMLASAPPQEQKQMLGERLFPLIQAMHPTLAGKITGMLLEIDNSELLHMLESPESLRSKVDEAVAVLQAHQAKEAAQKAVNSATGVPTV
eIF4H FP inh retest: further read-out of eIF4H FP inh, marked with its call; inhibition, %; compound at 20 µM; confirmation average;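 mean of two retest wells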
PABP FP inh retest: also measured in PABP FP inh; calls as there; inhibition, %; compound at 20 µM; confirmation repeats;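 mean of two retest wells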
MT1-MMP act inh RFP: also measured in MT1-MMP act inh; calls as there; RFP signal change, %; measured here: RFP expression control read;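 0 = vehicle wells; hits needed this value within 50% of zero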
An asterisk follows results filed as active; i = inactive; x = no result given; & = joins results of further samples.

SMILES	Env fusion inh	eIF4H FP inh	UUG fidelity	Rce1 inh	CSC inhib	MT1-MMP act inh	MT1-MMP act inh RFP	PABP FP inh	others
Cc1cccnc1NC(=O)CSc1nnc(Cc2ccccc2)o1	-19	2	-15	i	-2	1	-3	21
O=C(CC1CCCCC1)Nc1ccc(-c2ccc3nncn3n2)cc1	16	-4	x	i	31	1	3	8
COc1ccccc1/C=C/C(=O)OCC(=O)Nc1c(F)cccc1F	2	1	x	i	x	4	8	21
COc1cc(C(C(=O)NC2CCCC2)N(CCO)C(=O)Cn2nnc(-c3ccc(C)o3)n2)ccc1O (stereo unspecified)	2	2	-12	i	-4	0	1	4
Cc1ccc(OCC(=O)NNC(=O)c2cccnc2)cc1	15	-4	-25	i	11	3	3	-5
CS(=O)(=O)c1ccc(Cl)c(NC(=O)CNC(=O)c2ccc3c(c2)OCO3)c1	x	x	-28	x	-15	5	1	x
CCCCC(c1nnnn1C1CCCC1)N1CCN(C2CCCCC2)CC1 (stereo unspecified)	x	-3	-1	i	7	-4	11	2
CCc1ccc(-c2cc3c(=O)n(CC(=O)NCc4ccccc4F)ncn3n2)cc1	-21	-15	-15	i	-13	-1	1	8
C#CCOCCOCCOCCNc1nc(N2CCN(C(=O)[C@H](CCC(=O)O)n3cc(C(N)Cc4ccc(O)cc4)nn3)CC2)nc(N2CCN(C(=O)[C@H](Cc3cc4ccccc4[nH]3)n3cc(C(N)[C@H](C)CC)nn3)CC2)n1 (stereo partly specified)	x	6	32	i	1	1	7	7
C(=C\c1ccccc1)/CN1CCN(C(c2ccccc2)c2nnnn2Cc2ccccc2)CC1 (stereo unspecified)	8	x	-7	x	x	-1	-6	x
COc1cccc(Cn2cnc3c(NS(=O)(=O)c4ccc(Cl)cc4)c(C)c(C)cc32)c1	-118	1	-15	i	-12	-12	0	-5
O=C(O)CCCC(=O)Nc1ccc(Cl)cc1	10	-5	5	i	4	-1	3	1
CCC(CCC(=O)Nc1cccc(C(=O)O)c1)C(=O)O (stereo unspecified)	x	0	-15	i	0	-1	0	3
O=C(C[n+]1cc(-c2ccc(F)cc2)n2c1CCC2)Nc1nc(-c2ccc(F)cc2)cs1	-22	-5	x	i	-8	-1	6	44
O=C(Nc1cccc2cccnc12)C1CCCC1	4	3	-12	i	-3	2	5	4
COc1ccccc1C(=O)N/C(=C/c1ccccc1)C(=O)NC(CCSC)C(=O)O (stereo unspecified)	x	-2	-2	i	2	-1	5	-7
CCCCCCN(C(=O)CCCCCN1C(=O)NC(c2ccc(-c3ccccc3)cc2)C(C(=O)OCc2ccccc2)=C1C)C(C(=O)NCCCC)c1ccc(OCC(=O)OC)cc1 (stereo unspecified)	x	-16	x	i	-2	x	x	-8
CCOC(=O)C1C(c2ccc(OC)cc2)N(C)OC1(O)C(F)(F)F (stereo unspecified)	14	1	x	i	-8	0	0	36
O=C(Nc1cccc(O)c1)c1ccccc1[N+](=O)[O-]	2	6	x	i	-10	0	2	-3
Cc1nn(-c2ccccc2)c(Cl)c1/C=N/Nc1nncc(=O)[nH]1	10	-4	-7	i	1	0	-3	13
CCC(C(=O)N1CCN(c2cccc(Cl)c2)CC1)c1ccccc1 (stereo unspecified)	x	10	1	i	16	-12	-7	1
COc1ccc(C2=CSC3=NCCN23)cc1	-4	-4	-14	i	-9	-1	3	2
O=C(Nc1ccc(F)cc1)c1cccc(C(=O)Nc2ccc(F)cc2)c1	23	1	-20	i	-10	-2	0	-14
COc1ccc(CNC(=O)c2c(O)c3ccccc3n(C)c2=O)cc1	-32	-12	-14	i	0	1	-4	8
C/C(CC(=O)Nc1ccc(C)c(Cl)c1)=N\NC(=O)c1ccncc1	1	12	x	x	x	0	-1	-2
O=C(O)c1ccccc1Nc1ccnc(C(F)(F)F)c1	-21	-3	-4	i	-9	3	2	-2
CCCCCCCCCCOC(=O)Cn1c(COc2ccc(Cl)cc2)[n+](C)c2ccccc21	24	20	-82	i	109*	-17	-27	14
COCc1cc(C)nc(Nc2ccccc2C)c1C#N	x	-6	x	i	x	19	3	-2
CC(O)C(NC=C1C(=O)OC(C)(C)OC1=O)C(=O)O (stereo unspecified)	-17	-3	x	i	-4	1	0	-2
CCOC(=O)C1(NC(=O)C2(NC(=O)CN3C(=O)c4ccccc4C3=O)CCCC2)CCCC1	12	x	-13	x	x	-3	5	x
O=C(COc1ccccc1)NCC(=O)N/N=C/c1ccccc1	x	33	x	i	-5	3	4	-12
CC1(C(=O)Nc2ccc(F)cc2F)CCN1C(=O)Cc1ccc(Cl)cc1Cl (stereo unspecified)	13	x	-11	x	x	2	2	x
CSc1ccc(C=O)cc1	x	x	-14	x	-7	2	3	x
Cn1c(N)c(C(=O)COC(=O)CSc2ccc3ccccc3c2)c(=O)n(C)c1=O	-1	1	x	i	-4	-4	0	6
CCOC(=O)Cc1nn(Cc2ccccc2)c(=O)c2ccccc12	20	-9	x	i	-8	-4	0	2
COc1ccc(-n2c(SCC3OCCO3)nc3c(sc(=S)n3-c3ccccc3)c2=O)cc1OC	15	-8	x	i	-17	3	-7	18
O=C(CCCNS(=O)(=O)c1cccc2nsnc12)NC1CCCCC1	x	-7	-4	i	-15	0	5	-1
Cc1cccc(C(=O)NNC(=O)c2ccc(NS(=O)(=O)c3cccs3)cc2)c1C	2	x	-6	x	x	3	0	x
COc1ccc(CCNC(=O)COC(=O)/C=C/c2ccc3c(c2)OCO3)cc1OC	x	x	-7	x	22	3	1	x
COc1ccc(S(=O)(=O)N2CCCCC2)cc1NC(=O)CCCOc1ccccc1	-3	x	9	x	x	1	8	x
Cc1ccccc1-c1nc(CSc2nc3c(c(=O)[nH]2)CCC3)c(C)o1	-1	3	-13	i	-1	4	-2	-3
Nc1nc2n(n1)C(=O)CC(c1ccccc1)N2 (stereo unspecified)	-4	6	x	i	-17	7	-4	-6
O=c1oc2ccccc2c(NCCO)c1[N+](=O)[O-]	-2	84	-14	i	-7	-4	1	-4	eIF4H FP inh retest=32;PABP FP inh retest=3
CC(C)(Oc1ccc(Cl)cc1)C(=O)NCC(c1cccs1)N1CCOCC1 (stereo unspecified)	14	x	2	i	-11	-2	-4	x
CCC/C=C/c1ccc(CN2C(C(C)C)C(=O)N(Cc3cn(CC4CCCCC4)nn3)CCS2(=O)=O)cc1 (stereo unspecified)	68*	x	-2	x	x	-2	-9	x
O=C(Nc1nnc(-c2ccccc2SCc2ccccc2F)s1)Nc1ccccc1F	x	-1	-9	i	9	14	3	-5
CCOC(=O)C1(O)CSc2nc3sc(C(=O)O)c(C)c3c(=O)n21 (stereo unspecified)	x	-6	-4	i	x	x	x	-3
O=C(Nc1cccc(O)c1)c1ccc([N+](=O)[O-])cc1Cl	-11	12	-56	i	-4	4	3	2
COc1c(C(=O)N2CCCC2)ccc2ccccc12	-40	-8	-6	i	-7	5	1	-2
Cc1ccc(N2CCN(/N=C/c3cccs3)CC2)cc1	x	1	5	i	4	-3	-1	-7
Continuation:
SMILES	Env fusion inh	eIF4H FP inh	UUG fidelity	Rce1 inh	CSC inhib	MT1-MMP act inh	MT1-MMP act inh RFP	PABP FP inh	others
COc1ccc(-c2csc(C(O)c3ccc(F)cc3)n2)cn1 (stereo unspecified)	-18	x	-11	x	x	3	0	x
O=C1c2sccc2-c2cccc3cccc1c23	31	x	-46	x	x	-24	-3	x
CC(O)CN(Cc1ccc(Cl)cc1)CC(C)O (stereo unspecified)	x	-8	-22	i	-11	-1	2	-2
CCc1nc(SCC(=O)Nc2cccc3ccccc23)[nH]c(=O)c1C	15	-8	-3	i	-16	6	2	3
Cc1cc(C)c2ccc(NN)nc2c1O	-27	8	-19	i	20	4	11	1
O=C(COC(=O)c1ccc(Cl)nc1)NNC(=O)c1ccc(Cl)cc1	-13	x	-11	i	0	-3	3	x
O=C1c2cccc3cccc(c23)C(=O)N1CC1CCN(CC(O)COCc2ccc3c(c2)OCO3)CC1 (stereo unspecified)	x	-1	x	i	28	0	-11	5
Cc1cc2c(C)cc(=O)[nH]c2cc1NC(=O)CCl	11	7	x	i	14	8	-1	17
CCc1cc(C(=O)OC)c(NC(=O)c2cc(Br)cs2)s1	x	-6	-18	i	6	-2	-1	-9
CN(Cc1cccc(Cl)c1Cl)C(=O)c1cc(S(=O)(=O)N2CCOCC2)ccc1F	-20	x	-9	x	-8	2	-5	x
Cc1nc(-c2cccs2)ccc1C(=O)O	-1	6	x	i	12	-3	7	-2
CC(C)[C@H](NC(=O)c1ccccc1)C(=O)N1CCc2ccccc21	36	1	-1	i	-12	-7	-3	-14
Cc1cccc(C)c1OCCCCCNCCO	x	-12	45	i	1	x	x	-4
O=C(NC(=S)Nc1ccccc1F)c1ccc(Br)o1	-7	-5	-5	i	-8	1	5	1
COc1ccccc1C(CNC(=O)c1ccc(-c2ccccc2Cl)o1)N1CCCC1 (stereo unspecified)	-3	x	x	i	x	-4	3	x
COC(=O)N(C)C[C@@H]1OCc2cn(nn2)CCCC(=O)N([C@H](C)CO)C[C@H]1C	-3	x	8&-17	x	x	0	4	x
Cc1cc(C)n(S(=O)(=O)c2ccccc2)n1	-2	1	-15	i	-13	-5	3	18

Some of these compounds in order of count of non-hydrogen atoms, descending.
SMILES	Env fusion inh	eIF4H FP inh	UUG fidelity	Rce1 inh	CSC inhib	MT1-MMP act inh	MT1-MMP act inh RFP	PABP FP inh	others
O=C1c2cccc3cccc(c23)C(=O)N1CC1CCN(CC(O)COCc2ccc3c(c2)OCO3)CC1 (stereo unspecified)	x	-1	x	i	28	0	-11	5
COc1ccccc1C(CNC(=O)c1ccc(-c2ccccc2Cl)o1)N1CCCC1 (stereo unspecified)	-3	x	x	i	x	-4	3	x
CN(Cc1cccc(Cl)c1Cl)C(=O)c1cc(S(=O)(=O)N2CCOCC2)ccc1F	-20	x	-9	x	-8	2	-5	x
COC(=O)N(C)C[C@@H]1OCc2cn(nn2)CCCC(=O)N([C@H](C)CO)C[C@H]1C	-3	x	8&-17	x	x	0	4	x
CCc1nc(SCC(=O)Nc2cccc3ccccc23)[nH]c(=O)c1C	15	-8	-3	i	-16	6	2	3
CC(C)[C@H](NC(=O)c1ccccc1)C(=O)N1CCc2ccccc21	36	1	-1	i	-12	-7	-3	-14
COc1ccc(-c2csc(C(O)c3ccc(F)cc3)n2)cn1 (stereo unspecified)	-18	x	-11	x	x	3	0	x
CCc1cc(C(=O)OC)c(NC(=O)c2cc(Br)cs2)s1	x	-6	-18	i	6	-2	-1	-9
O=C(NC(=S)Nc1ccccc1F)c1ccc(Br)o1	-7	-5	-5	i	-8	1	5	1
Cc1cc2c(C)cc(=O)[nH]c2cc1NC(=O)CCl	11	7	x	i	14	8	-1	17
O=C1c2sccc2-c2cccc3cccc1c23	31	x	-46	x	x	-24	-3	x
Cc1cc(C)n(S(=O)(=O)c2ccccc2)n1	-2	1	-15	i	-13	-5	3	18
Cc1cc(C)c2ccc(NN)nc2c1O	-27	8	-19	i	20	4	11	1
